Bioassay records deposited in PubChem by Johns Hopkins Ion Channel Center.
KCNQ2 block = KCNQ2 potassium channel inhibitors, primary screen, cell-based, CHO-K1, FluxOR thallium flux, B-score (AID 2156) | O88943 | 20 min; stronger effect = lower value; only compounds with negative scores are shown here; some inactives read as strong as hits | B-score at 10 µM | hit rate 1.1% among 310,000;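 active = fluorescence ratio B-score at most minus 3 library SDs, with starting brightness B-score within 2 library SDs, cut at about -5.5 in these data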
Target sequence (O88943 whole entry, looked up): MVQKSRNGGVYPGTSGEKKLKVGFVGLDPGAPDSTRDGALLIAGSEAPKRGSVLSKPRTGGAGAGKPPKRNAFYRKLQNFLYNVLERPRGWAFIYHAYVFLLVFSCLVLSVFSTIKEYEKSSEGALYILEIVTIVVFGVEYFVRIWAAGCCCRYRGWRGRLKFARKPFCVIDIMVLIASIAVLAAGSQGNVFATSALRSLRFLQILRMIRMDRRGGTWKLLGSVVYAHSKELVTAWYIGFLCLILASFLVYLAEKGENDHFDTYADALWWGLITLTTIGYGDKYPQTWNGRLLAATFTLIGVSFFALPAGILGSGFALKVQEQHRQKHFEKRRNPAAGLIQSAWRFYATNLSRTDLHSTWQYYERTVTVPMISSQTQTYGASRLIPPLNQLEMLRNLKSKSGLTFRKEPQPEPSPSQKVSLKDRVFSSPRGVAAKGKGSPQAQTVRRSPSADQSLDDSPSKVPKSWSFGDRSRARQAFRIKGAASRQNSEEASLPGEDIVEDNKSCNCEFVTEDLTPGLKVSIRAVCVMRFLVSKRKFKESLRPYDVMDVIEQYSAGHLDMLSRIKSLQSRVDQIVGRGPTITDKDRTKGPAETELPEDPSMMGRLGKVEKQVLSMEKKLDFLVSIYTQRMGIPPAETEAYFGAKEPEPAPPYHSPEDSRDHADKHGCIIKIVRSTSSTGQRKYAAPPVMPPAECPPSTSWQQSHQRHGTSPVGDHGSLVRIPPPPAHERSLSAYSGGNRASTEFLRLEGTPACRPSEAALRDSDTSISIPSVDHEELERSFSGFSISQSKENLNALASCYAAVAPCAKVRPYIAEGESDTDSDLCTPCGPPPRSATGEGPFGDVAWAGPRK
KCNQ2 block baseline = second read-out of KCNQ2 block, no call of its own (marks repeat the call); B-score; measured here: initial fluorescence intensity artifact check;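 brightness before thallium and not channel activity; 0 = typical well and far values either way flag optical interference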
The depositor's hits bear a star; i = inactive. This is a subset, so the mix of outcomes need not match the whole.

SMILES | KCNQ2 block | KCNQ2 block baseline
CCOC(=O)c1ccccc1NC(=O)CC(C)CC(=O)O (configuration not stated) | i | 1.6
CCN1C(=O)C(O)(CC(=O)c2cccc(-n3cccc3)c2)c2ccccc21 (configuration not stated) | i | -0.74
COc1ccccc1/C=N/NC(=O)c1cccc(NC(=O)c2ccccc2C)c1 | i | 0.02
CCc1ccc2nc(NC(=O)c3ccc4c(=O)[nH]c(CN5CCOCC5)nc4c3)sc2c1 | i | 0.19
COc1ccc(-c2nc(CCNC(=O)c3ccco3)cs2)cc1OC | i | -0.44
C=CCN(CC=C)CCOc1ccccc1F | i | 0.28
COCCNC(=O)/C(C#N)=C/c1cn(CC(=O)NCc2ccco2)c2ccccc12 | i | -0.6
CCOC(=O)C(=O)C1=CN(Cc2ccccc2)C=C(C#N)C1 | i | 1.4
CN(C)c1ccc(C(c2nnnn2C(C)(C)C)N2CCc3ccccc3C2)cc1 (configuration not stated) | i | 2.3
COc1ccc(CC(=O)NCc2cccc(CNC(=O)Cc3ccc(OC)c(OC)c3)c2)cc1OC | i | 0.51
O=C(CSc1ncccn1)NC1CCCc2ccccc21 (configuration not stated) | i | 2.4
O=C(Nc1nnc(-c2ccccc2SCc2ccccc2)s1)Nc1ccccc1F | i | 0.02
O=C1CC(c2ccccc2)C(C(=O)Nc2ccccc2F)N1 (configuration not stated) | i | 1.1
CCc1ccc(C(=O)COC(=O)C(CCSC)NC(=O)C23CC4CC(CC(C4)C2)C3)cc1 (configuration not stated) | i | 1.6
CCN(c1cccc(C)c1)c1ncnc2nc[nH]c12 | i | 1.2
COC(=O)c1c(NC(=O)C(C)C)sc2c1C(C(=O)OC)CC2 (configuration not stated) | i | -0.9
Cc1ccc(NC(=O)C2C(C(=O)O)C3C=CC2C32CC2)cc1 (configuration not stated) | i | 0.19
Fc1ccc(CNc2ncnc3cc(Cl)ccc23)cc1 | i | -2.1
COc1ccccc1C(=O)Nc1ccc(C(=O)c2ccccc2)cc1 | i | -0.06
COc1ccc(C2=NN(C(=O)CN3CCCCC3)C(c3ccc(OC)cc3)C2)cc1 (configuration not stated) | i | -0.47

Arranged by the number under KCNQ2 block baseline (ascending): 3 from the list above.
SMILES | KCNQ2 block | KCNQ2 block baseline
CCN1C(=O)C(O)(CC(=O)c2cccc(-n3cccc3)c2)c2ccccc21 (configuration not stated) | i | -0.74
COc1ccc(C2=NN(C(=O)CN3CCCCC3)C(c3ccc(OC)cc3)C2)cc1 (configuration not stated) | i | -0.47
CCOC(=O)C(=O)C1=CN(Cc2ccccc2)C=C(C#N)C1 | i | 1.4

Next part.
SMILES | KCNQ2 block | KCNQ2 block baseline
COc1ccc(C(=O)NCc2ccccc2)cc1S(=O)(=O)N1CCCc2ccccc21 | i | 0.24
O=C(Nc1ccc2c(c1)OCO2)c1ccc(Br)c(S(=O)(=O)N2CCCC2)c1 | i | 0.02
CC12CCC(C(=O)NNc3ccc([N+](=O)[O-])cc3)(CC1=O)C2(C)C (configuration not stated) | i | -0.69
O=C1NC(=Nc2ccccc2)S/C1=C\c1cccn1-c1ccccc1 | i | 1.1
CC(C)CNC(=O)c1cccc(NC(=O)c2ccc(Cl)c([N+](=O)[O-])c2)c1 | i | -2.7
Cc1ccc(CNC(=O)COc2ccc(C(=O)c3ccc(F)cc3)cc2)cc1 | i | 2.4
COc1cc(-c2nnn(CC(=O)NC3CCS(=O)(=O)C3)n2)ccc1OCc1ccccc1 (configuration not stated) | i | -0.91
COc1cc(C(=O)N/N=C/c2ccc(OC(=O)c3ccccc3Cl)c(OC)c2)ccc1O | i | -0.5
COC(=O)c1cc(Br)c(=O)n(Cc2ccc(OC)c(OC)c2)c1 | i | 0.03
O=C(O)CCN1C(=O)c2ccc(Oc3ccc([N+](=O)[O-])cc3)cc2C1=O | i | 0.4
COc1cccc(C(=O)N2CCCN(C)CC2)c1OC | i | -2.2
Cc1ccc2c(Cn3cc(C(F)(F)F)cc(Cl)c3=O)cc(=O)oc2c1 | i | 1.4
COc1ccc(C(=O)Nc2ccc(C)cc2C(=O)c2ccccc2)c(OC)c1 | i | -1.6
COCCN=C1N[C@@H](c2ccc(Br)cc2)C(C(=O)OC)=C(C)N1Cc1ccccc1 | i | -1.3
CN(C)S(=O)(=O)c1cccc(C(=O)N2CCN(Cc3ccccc3)CC2)c1 | i | 0.44
Cc1cccc(-n2ccnc2CN2CCN(C(C)C)C(CCO)C2)c1 (configuration not stated) | i | 0.68
CCOC(=O)C[C@H]1c2ccc(C(F)(F)F)cc2S(=O)(=O)N1C(C)(C)C | i | 0.79
CCNC(=S)NNC(=O)c1cc(-c2cc(C)ccc2C)nc2ccccc12 | i | 0.87
COc1ccc(C2c3ccc4ccccc4c3Oc3ncn(CCCN(C)C)c(=N)c32)cc1 (configuration not stated) | -6.1* | -1.6*
O=C1Nc2ccc(S(=O)(=O)N3CCOCC3)c3cccc1c23 | i | -1.8
COC(=O)c1ccc(Cl)c(NC(=O)CSc2nnc(-c3ccncc3)o2)c1 | i | -0.07
COc1ccc(OC)c(/C=N/NC(=O)c2ccc(Cn3cc([N+](=O)[O-])cn3)o2)c1 | i | 1.3
COc1cc(/C=C/c2c([N+](=O)[O-])c(=O)n(C)c(=O)n2C)cc(OC)c1OC | i | 0.21
Cc1c(C)c2c(OCC(=O)NCc3ccncc3)cc3c(c2oc1=O)CCC(C)(C)O3 | i | -0.6
N#C/C(=C\c1cc2c(cc1Br)OCO2)c1ccc(C(=O)O)cc1 | i | -2.8
COCc1nnc(NC(=O)CCS(=O)(=O)c2ccccc2)s1 | i | 2.9
COc1cccc(CNC(=O)Cn2ccc([N+](=O)[O-])n2)c1 | i | -0.59
CC1SC(c2ccccc2)N(CC(O)c2ccc([N+](=O)[O-])cc2)C1=O (configuration not stated) | i | -0.93
Cc1cccc(OCCCC(=O)Nc2ccc(S(=O)(=O)Nc3onc(C)c3C)cc2)c1C | i | -1.6
CN(C)/C=C(\C#N)C(=O)Nc1ccc(O)cc1F | i | 0.71
CCCCn1nc2cc(C(=O)NC[C@@H]3CCCO3)ccc2c1OCC | i | -1.9
Cc1cc(C)n2nc(CC(=O)NC3CCCCCC3)nc2n1 | i | 1.7
C/C(=N/NC(=O)CC(=O)N/N=C(\C)c1ccc([N+](=O)[O-])cc1)c1ccc([N+](=O)[O-])cc1 | i | -0.42
COc1ccc(-n2c(N)c(C(=O)Nc3c(C)n(C)n(-c4ccccc4)c3=O)c3nc4ccccc4nc32)cc1 | i | -0.02
CCN1C2=C(C(=O)CCC2)C(c2ccc(O)c(Br)c2)C2=C1CCCC2=O | i | -0.65
Cc1ccccc1CN1CCc2c(OCC(=O)N3CCCc4ccccc43)cccc2C1=O | i | -0.17
O=C1CC(/C=C/c2ccccn2)=Nc2ccccc2N1 | i | -1.5
CCCOC(=O)c1ccc(NC(=O)CCOc2ccccc2)cc1 | i | 0.18
CCOc1ccccc1NC(=O)C(OC(=O)c1ccccc1O)c1ccccc1 (configuration not stated) | i | -0.19
CC(C)[C@@H]1CC[C@@H](C)c2c(-c3ccccc3)n[nH]c21 | -7.2* | 1.1*
CCN(Cc1ccncc1)C(=O)c1ccccc1NS(=O)(=O)c1ccc(F)cc1 | i | -1.1
Cc1ccc(/C=C2\NC(=S)NC2=O)cc1[N+](=O)[O-] | i | -0.28
C/C(CC(=O)N1CCN(C=O)CC1)=N\NC(=O)c1cc2ccccc2cc1O | i | 0.99
Cc1cc(C)n(CC(=O)N2CCc3ccccc32)c(=O)c1C#N | i | 0.03
CCOc1ccc(-c2nn[nH]n2)cc1 | i | 1.1
COC(=O)C(C)Oc1cc(OC(C)C(=O)OC)c2c(C)c(Cl)c(=O)oc2c1 (configuration not stated) | i | -0.79
CCCOc1ccc(-c2nn(-c3ccccc3)cc2/C=C2\SC(=S)N(C3CCS(=O)(=O)C3)C2=O)cc1 (configuration not stated) | i | 1.1
CC1CC(=O)N(CC(=O)Nc2cccc(F)c2)c2ccccc2S1(=O)=O (configuration not stated) | i | 0.51
O=C(/C=C/c1cc([N+](=O)[O-])ccc1OC(F)F)Nc1cccc([N+](=O)[O-])c1 | i | 0.3
COc1cc(F)ccc1S(=O)(=O)n1c(C)nc2ccccc21 | i | -0.83
O=C(O)c1ccc(-n2cccc2/C=C2/NC(=O)N(c3ccccc3)C2=O)cc1 | i | -0.67
CCc1nc(SCc2ccc(Br)cc2)n[nH]1 | i | -0.62
COCCn1c(-c2ccccc2F)n[nH]c1=S | i | -0.33
Cc1nc(Nc2ccc(Cl)cc2Cl)sc1C(=O)Nc1ccccc1 | i | -0.07
Cc1ccccc1Cn1nc(C)c(NC(=O)C2(C)CC2(Cl)Cl)c1C (configuration not stated) | i | -0.15
COCCn1nnnc1C(c1cc2cc(C)ccc2[nH]c1=O)N1CCc2ccccc21 (configuration not stated) | i | -0.56
Cc1ccc2oc3c(c(=O)c2c1)C(c1cccc(O)c1)N(c1ccccn1)C3=O (configuration not stated) | i | 2.9
Cc1ccc(C(=O)N2C(=O)C(c3ccccc3)Oc3ccccc32)cc1 (configuration not stated) | i | -1.9
Cc1ccc(C)c(CN2C(=O)c3ccccc3S(=O)c3ccc(C(=O)N4CCN(c5ccccn5)CC4)cc32)c1 (configuration not stated) | i | 0.18
Cc1ccc(NC(=O)CSc2n[nH]c(-c3ccncc3)n2)c(C)c1 | i | 2.1
(list continues)
SMILES | KCNQ2 block | KCNQ2 block baseline
CCOc1ccc(/C=N/Nc2ccc(C(F)(F)F)cc2[N+](=O)[O-])cc1O | i | 0.5
Cc1cc(C)c(S(=O)(=O)c2cccc(Cl)c2)c(Cl)n1 | i | -0.42
O=C1NCCN(Cc2ccc(Cl)c(F)c2)C1CC(=O)N1CCCCO1 (configuration not stated) | i | -0.36
Cn1ncc([N+](=O)[O-])c1C(=O)N1CCCCCC1 | i | -3.5
c1ccc(Nc2nc(-c3cccnc3)cs2)nc1 | i | -1.4
CCOc1ccc2c(c1)[nH]c(=S)n2C | i | 0.88
CN(C(=O)c1cccc(C#CC(C)(C)O)c1)C1CCCN(Cc2ccccc2F)C1 (configuration not stated) | i | 0.54
Cc1cccc(NC(=O)CCCN2C(=O)c3cccc4cccc(c34)C2=O)c1 | i | -0.75
CCCCN(C(=O)c1ccc(C#N)cc1)c1c(N)n(CCC)c(=O)[nH]c1=O | i | -1.3
COc1ccc(NC(=O)c2cnn3c(C(F)(F)F)cc(-c4ccco4)nc23)cc1OC | i | 1.7
C=CCNC(=S)N/N=C1\CCS(=O)(=O)c2ccccc21 | i | 0.55
CCOc1ccc(NS(=O)(=O)c2ccc(NC(=O)C3CC3)cc2)cc1 | i | 0.26
CCCCCCCCOC1OC(CO)C(O)C(O)C1NC(C)=O (configuration not stated) | i | 1.4
COc1ccc(C2(c3ccc(OC)cc3)NC(=O)N(CC(=O)Nc3ccc(N4CCOCC4)cc3)C2=O)cc1 | i | 4
C[C@@H](C(=O)NCc1ccccc1)[C@H]1C[C@]1(C)[C@H](NC(=O)OCc1ccccc1)c1ccccc1 | i | -0.57
CCC(=O)N(Cc1cc2cccc(C)c2[nH]c1=O)c1ccccc1OC | i | 1.4
CCOc1ncccc1C(=O)NCCc1ccc(Cl)cc1 | i | -1.3
N=c1c(C(=O)NCC2CCCO2)cc2c(=O)n3ccccc3nc2n1Cc1ccccc1Cl (configuration not stated) | i | 0.79
Nc1c(N=Nc2cccc(Cl)c2)c(=O)[nH]n1-c1ccccc1 | i | 1.8
O=C(Cc1ccccc1F)Nc1nc(-c2cccnc2)cs1 | i | 2.4

Full records as entered above:
`Fc1ccc(CNc2ncnc3cc(Cl)ccc23)cc1` reads KCNQ2 block = i; KCNQ2 block baseline = -2.1
`COCCn1c(-c2ccccc2F)n[nH]c1=S` reads KCNQ2 block = i; KCNQ2 block baseline = -0.33
`COc1cc(-c2nnn(CC(=O)NC3CCS(=O)(=O)C3)n2)ccc1OCc1ccccc1` (configuration not stated) reads KCNQ2 block = i; KCNQ2 block baseline = -0.91

Later entries:
SMILES | KCNQ2 block | KCNQ2 block baseline
CCOC(=O)c1cn(CC(=O)Nc2ccc3c(c2)OCCO3)nn1 | i | -0.16
O=C(Cn1cc2c(n1)CCCCC2)Nc1c(F)cc(F)cc1Br | i | -0.29
O=C(CN1C(=O)CCC1=O)c1ccc(-c2ccccc2)cc1 | i | 1.8
CCOC(=O)c1cc(CC)sc1NC(=O)COC(=O)C1CCC1 | i | 0.59
O=C1/C(=C/c2ccc([N+](=O)[O-])cc2)C=C(c2ccccc2)N1c1ccc(O)cc1 | i | 0.64
CN(C)/C=C/C(=O)c1cccc(Oc2ncccn2)c1 | i | -0.41
CCOc1ccccc1NC(=O)c1ccc(Cl)c(NC(=O)CC(c2ccccc2)c2ccccc2)c1 | i | -2.4
COc1ccc(-c2csc(Nc3cccnc3)n2)cc1OC | i | 0.03
CN(Cc1ccccc1)C(=O)[C@@H]1CCCN1S(=O)(=O)c1ccc(Cl)cc1 | i | 1.6
C[C@]12CCC(O)CC1CCC1C2CC[C@]2(C)C(c3cc(C(F)(F)F)n[nH]3)CCC12 (some centres not stated) | i | -0.19
Cc1cc(C(=O)N2CCN(S(C)(=O)=O)CC2)cs1 | i | -1.9
Cc1ccc(COc2ccsc2C(=O)NNC(N)=S)cc1 | i | -1.2
COc1ccc([N+](=O)[O-])cc1NC(=O)C(C)OC(=O)CN1C(=O)C2CC=CCC2C1=O (configuration not stated) | i | 2.1
CCCSCCCNC(=O)c1ccccc1NC(=O)C1=CSCCO1 | i | 1.6
CCOc1ccc(CCNC(=O)CCc2nnc3ccc(N4CCCCC4)nn23)cc1OCC | i | -0.26

2 entries from above, field by field.
> Cc1cc(C(=O)N2CCN(S(C)(=O)=O)CC2)cs1
  KCNQ2 block: i; KCNQ2 block baseline: -1.9

> C[C@]12CCC(O)CC1CCC1C2CC[C@]2(C)C(c3cc(C(F)(F)F)n[nH]3)CCC12 (some centres not stated)
  KCNQ2 block: i; KCNQ2 block baseline: -0.19
